Bioassay records deposited in PubChem by National Center for Advancing Translational Sciences (NCATS).
VDR inhibitor: vitamin D3 receptor (human) inhibition | P11473 | VDR-SRC2-3 peptide fluorescence polarization, 2 h | Potency, µM, for the others: max response, negative = inhibition, hits mostly inhibitors | 400,000 compounds, 0.93% hits; active means well fitted inhibition curve with a large enough effect; inconclusive means small, poorly fitted or top-dose-only effect, or another doubt; inactive means no such curve, though single readings can be large or run the other way; further: series mostly up to about 120 µM
Target sequence (P11473 whole entry, looked up): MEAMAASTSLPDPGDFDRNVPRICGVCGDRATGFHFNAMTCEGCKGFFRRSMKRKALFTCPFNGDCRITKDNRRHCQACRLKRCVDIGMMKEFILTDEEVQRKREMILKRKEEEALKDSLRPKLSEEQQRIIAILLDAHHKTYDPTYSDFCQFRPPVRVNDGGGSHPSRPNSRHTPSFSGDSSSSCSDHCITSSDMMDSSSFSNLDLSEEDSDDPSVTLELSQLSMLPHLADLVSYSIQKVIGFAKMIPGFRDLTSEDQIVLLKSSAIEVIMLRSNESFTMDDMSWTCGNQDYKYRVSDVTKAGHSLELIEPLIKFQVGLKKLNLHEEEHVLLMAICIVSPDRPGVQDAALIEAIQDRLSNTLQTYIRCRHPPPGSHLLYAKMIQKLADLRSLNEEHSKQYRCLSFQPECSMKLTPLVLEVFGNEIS
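After 23 nl compound addition and a short centrifugation, plates sat for 2 hours at ambient temperature; polarization of fluorescence then indicated loss of VDR binding to peptide SRC2-3.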
Active calls of the source: *; ? = inconclusive; & = joins results of further samples; [ ] = remark or other dose. On the % scale 0 is the no-effect control and ±100 the full control effect; potency means the concentration at half of the fitted maximal effect.

compound	VDR inhibitor
COc1ccc(-c2c([C@H]3[C@@H]4C=CCC[C@@]4(C)C(=O)N3Cc3ccccc3)ccc3ccccc23)cc1OC	-12%
O=C(Nc1ccc(F)cc1)c1cnc(-c2ccccc2)nc1-c1ccccc1	8%
CC(C)(C)c1ccc(OCCC(=O)NCC(c2cccs2)N2CCOCC2)cc1 (configuration not stated)	-29%
CCCCc1nn2c(=O)cc(COC(=O)c3cccc(Cl)c3)nc2s1	14%
Cn1c(SCC(=O)NCc2ccco2)nnc1C1CCCC1	4%
COc1ccc(C2=CC3=C(Br)C(=O)C(C)(OC(=O)C4CCCC4)C(=O)C3=CO2)cc1 (configuration not stated)	?
CCN1C=C(Cc2ccc(OC)cc2)C2=C(C1)C(c1ccc(OC)cc1)C(C#N)=C(N)O2 (configuration not stated)	32%[activator]
CCCCC12CN3CC(C)(CN(C1)C3c1cc(Br)ccc1O)C2=O (configuration not stated)	-2%
CCNc1nc(NCC)n2c(SCC(=O)Nc3ccc(NC(C)=O)cc3)nnc2n1	-4%
CCOc1ccc(CNS(=O)(=O)c2cc3c(cc2C)NC(=O)CO3)cc1	3%
COc1cccc(C(=O)Nc2ccc(NC(=O)C3CC3)cn2)c1	0%
COc1ccc(C2NC(=O)c3sc4nc(C)c(C(C)=O)c(-c5ccc(Cl)cc5)c4c3N2)cc1 (configuration not stated)	-8%
CCCCOc1ccc(NC2=NC3(CCCCC3)N=C(N)N2)cc1	-10%
COc1ccc(OC)c(/C=N/c2c(-c3ccc(O)c(OC)c3)nc3ccccn23)c1	-14%
COc1cc(O)cc(OC)c1OC	45µM*
COc1cc(NC(=O)c2cnn3c(C(F)F)cc(C4CC4)nc23)c(OC)cc1Cl	-12%
COC(=O)c1ccccc1NC(=O)[C@H]1O[C@@H]2OC(C)(C)O[C@@H]2[C@H]2OC(C)(C)O[C@H]21	4%
O=C(N/N=C/c1ccc(Cl)c([N+](=O)[O-])c1)c1ccc2c(c1)OCCO2	-11%
O=C(c1cnccn1)N1CCC2(CC1)CCN(C(c1ccccc1)c1ccccc1)CC2	-1%
CCOc1ccc(Br)cc1S(=O)(=O)Nc1ccc(C(=O)OCC(=O)Nc2ccc(C#N)cc2)cc1	-1%

New compounds follow.
compound	VDR inhibitor
CC(C)CCNC(=O)c1ccc(OC2CCN(S(=O)(=O)N(C)C)CC2)cc1	7%
CCc1ccc(NC(=O)CC2C(=O)N(c3cccc(C)c3)C(=O)N2Cc2ccc(F)cc2)cc1 (configuration not stated)	13%
COc1ccccc1OCC(=O)Nc1sc2c(c1C(N)=O)CCC2	-18%
Cc1cccc(NS(=O)(=O)c2cc(C(=O)OCC(=O)Nc3cc(C)on3)ccc2C)c1	4%
COc1ccc(N2CCN(c3ncnc4c3nc3n4CCCCC3)CC2)cc1	-18%
CC1CCCCN1C(=O)CSc1nc2ccccc2nc1Cc1ccccc1 (configuration not stated)	-1%
CCC(NS(=O)(=O)c1ccc(OC)cc1)C(=O)NCCc1ccccc1 (configuration not stated)	-4%
CC(=O)Nc1ccc2nc(CN3CCN(CC(C)C)C(CCO)C3)ccc2c1 (configuration not stated)	-9%
NC(=O)C(CCC(=O)c1ccc(Br)cc1)S(=O)(=O)c1ccccc1 (configuration not stated)	-7%
O=C(CCn1c(=O)oc2ccccc21)N1CCc2ccccc21	-3%
Cc1ccc(C2NC(=S)NC3=C2C(=O)CC(C)(C)C3)cc1 (configuration not stated)	-14%
Cc1ccc(CC(=O)Nc2ccncc2)cc1	-17%
O=C(c1ccc2c(c1)N(Cc1ccc(Cl)cc1)C(=O)c1ccccc1S2(=O)=O)N1CCc2ccccc21	1%
C=CCn1c(SCc2cc([N+](=O)[O-])cc3c2OCOC3)nc2cc(C(=O)O)ccc2c1=O	-6%
O=S(=O)(Nc1cccc2ccccc12)c1cccs1	9%
CCc1nc(Nc2ccccc2OC)c2oc3ccccc3c2n1	1%
COc1ccc(C)cc1N(CC(=O)Nc1cccnc1)S(=O)(=O)c1ccc(C)cc1	2%
Nc1c2c(nc3sc4c(c13)CCCC4)CCCCCC2	-8%
Cc1nn(-c2cccc(C(F)(F)F)c2)c(=O)c2ccccc12	-9%
N#CC1=C(N)N(c2ccccc2)C2=C(C(=O)CCC2)C1c1ccsc1 (configuration not stated)	-18%

New compounds follow:
compound	VDR inhibitor
COC(=O)c1nonc1NCn1nnc2ccccc21	-7%
O=C1COc2cc(S(=O)(=O)NCc3ccco3)c(Cl)cc2N1	11%
Cc1c(C(=O)OCC(=O)N2CC(C)OC(C)C2)oc2ccc(Br)cc12 (configuration not stated)	2%
O=C(CSc1nc2c(cnn2-c2ccccc2)c(=O)[nH]1)NC1CCS(=O)(=O)C1 (configuration not stated)	-6%
CN(C(=S)Nc1cccnc1)c1ccc(O)cc1	-15%
N#C/C(=C\c1ccc(-c2ccccc2C(=O)O)o1)c1nc2ccccc2[nH]1	?
Cn1ccsc1=NC(=O)c1cccc(C#N)c1	-3%
CC(=O)C1=C(C)OC(N)=C(C#N)C1c1ccncc1 (configuration not stated)	6%
Cc1nc(-c2ccc(O)c(O)c2)cs1	-10%
O=C(O)CC1SC(=Nc2cccc(C(F)(F)F)c2)NC1=O (configuration not stated)	-12%
O=c1c([N+](=O)[O-])c(N2CCOCC2)c2ccccc2n1Cc1ccccc1	-9%
CCCOc1ccc(-c2c(C(=O)N/N=C/c3ccccc3OCC)nnn2-c2nonc2N)cc1	5%
O=C(N/N=C/c1cccc2ccccc12)c1cc(C2CC2)[nH]n1	5%
COC(=O)c1cc(C(=O)OCC(=O)NC2CCS(=O)(=O)C2)cc([N+](=O)[O-])c1 (configuration not stated)	11%
O=C(O)c1ccc(Nc2nc(-c3cccnc3)cs2)cc1O	-11%
Cc1cc(C)cc(N2C(=O)CC(n3ccnc3)C2=O)c1 (configuration not stated)	-1%
CN(C)CCOC(=O)CC12CC3CC(C1)CC(CC(=O)OCCN(C)C)(C3)C2	-13%
CC(Sc1nnnn1C)C(=O)NC1CCCc2ccccc21 (configuration not stated)	8%
COc1ccc(CC(=O)Nc2cc(C)ccc2O)cc1OC	1%
O=C(COC(=O)c1ccc(Br)o1)Nc1cccc(S(=O)(=O)N2CCCCCC2)c1	-7%

Molecules listed so far that have a Cl atom:
compound	VDR inhibitor
CCCCc1nn2c(=O)cc(COC(=O)c3cccc(Cl)c3)nc2s1	14%
COc1ccc(C2NC(=O)c3sc4nc(C)c(C(C)=O)c(-c5ccc(Cl)cc5)c4c3N2)cc1 (configuration not stated)	-8%
COc1cc(NC(=O)c2cnn3c(C(F)F)cc(C4CC4)nc23)c(OC)cc1Cl	-12%
O=C(N/N=C/c1ccc(Cl)c([N+](=O)[O-])c1)c1ccc2c(c1)OCCO2	-11%
O=C(c1ccc2c(c1)N(Cc1ccc(Cl)cc1)C(=O)c1ccccc1S2(=O)=O)N1CCc2ccccc21	1%
O=C1COc2cc(S(=O)(=O)NCc3ccco3)c(Cl)cc2N1	11%

Continuation.
compound	VDR inhibitor
O=C(NCCCN1CCCC1=O)C1CCN(S(=O)(=O)c2ccc(F)cc2)CC1	-4%
O=C(NC12CC3CC(CC(C3)C1)C2)c1ccc(COc2ccc(Cl)cc2[N+](=O)[O-])o1	0%
NCCn1c(-c2ccccc2)cc(C(=O)O)c1-c1ccccc1F	-22%
CC(=O)Nc1ccc(C(=O)Nc2ccc3c(c2)N(C2CCCC2)C(=O)c2ccccc2S3)cc1	17%
CCOc1ccccc1NC(=O)CSc1c(C)cnc2c1c(=O)n(C)c(=O)n2C	4%
CCOC(=O)c1c(C)oc2cc(Br)c(OC(C)C(=O)OCC)cc12 (configuration not stated)	1%
Cn1c(SCC(=O)N2CCN(c3cccc(Cl)c3)CC2)nnc1-c1ccncc1	4%
COc1ccc(OC)c(CN2CCN(C(=O)c3ccc(C)c(S(=O)(=O)Nc4ccccc4OC)c3)CC2)c1	-20%
COc1ccccc1C1CC(=O)Oc2cc(OC)c(OC)c(OC)c21 (configuration not stated)	2%&2%
CCOC(=O)c1noc2nc(C)n(CC(=O)Nc3ccccc3F)c(=O)c12	-8%
Cc1[nH]nc2c1C(C1CC=CCC1)C(C#N)=C(N)O2 (configuration not stated)	5%
COC(=O)CSc1nc(-c2ccccc2)nc2ccccc12	-7%
Cc1ccccc1-n1c(/C=C/c2c(C)n(C)c3ccccc23)nc2ccccc2c1=O	-8%
CCc1ccc(-c2cn3nc(C)c(C)nc3n2)cc1	10%
Cc1ccc2nc(N3CCN(c4ccccc4F)CC3)c(C=O)c(=O)n2c1	15%
CC1=C(C(=O)NCc2ccccc2)C(c2cccs2)n2ncnc2N1 (configuration not stated)	14%
Cc1nn(Cc2c(F)c(F)c(F)c(F)c2F)c(C)c1NC(=O)c1nn(C)c(C)c1Br	-19%
CCOC(CNC(=O)Cc1c(C)nc2c(-c3ccccc3)c(C)nn2c1C)OCC	5%
O=C(CSc1nnnn1-c1ccccc1)Nc1nc(-c2ccccc2)ns1	-5%
Cc1cccc2c(=O)n3c(nc12)CCCCC3	-2%

A draw from above in order of molecular weight, descending:
compound	VDR inhibitor
COc1ccc(OC)c(CN2CCN(C(=O)c3ccc(C)c(S(=O)(=O)Nc4ccccc4OC)c3)CC2)c1	-20%
Cc1nn(Cc2c(F)c(F)c(F)c(F)c2F)c(C)c1NC(=O)c1nn(C)c(C)c1Br	-19%
Cc1cccc2c(=O)n3c(nc12)CCCCC3	-2%

(cont.)
compound	VDR inhibitor
Cc1nc(CCNS(=O)(=O)c2cccs2)cs1	-1%
CCc1ccc(-c2csc(NC(=O)c3cccnc3)n2)cc1	-2%
CC(NC(=O)c1ccc(CS(C)(=O)=O)cc1)c1ccc(-n2ccnc2)cc1 (configuration not stated)	-2%
COc1cccc(OC)c1C(=O)Nc1cccc(-c2cn3ccsc3n2)c1	5%
CC(=O)c1cccc(N(CC(=O)Nc2ccccc2C(=O)N2CCCC2)S(C)(=O)=O)c1	0%
COc1cc(C(=O)NC2CCN(C)CC2)ccc1Nc1ncc2c(n1)N(CCc1ccccc1)CCC(=O)N2C	0%
COc1ccccc1/C=N/NC(=O)CC(=O)NC1CCCCC1	3%
OC(c1ccccc1)(c1ccccc1)C1CCN(C(=S)NC2CCCC2)CC1	9%
COc1cccc(NC(=O)Cn2c(=O)n(Cc3ccco3)c(=O)c3cc(OC)c(OC)cc32)c1	-18%
COc1cccc(C(c2c(N)n(C)c(=O)n(C)c2=O)C(C)[N+](=O)[O-])c1 (configuration not stated)	-6%
CCCCS(=O)(=O)Nc1ccc(N2CCOCC2)c(S(=O)(=O)N2CCOCC2)c1	4%
COc1ccc(NC(=O)CN2C(=O)CSc3ccc(S(=O)(=O)N(C)C)cc32)cc1Cl	6%
Cc1ccc(C23CC4CC(CC(C(N)=O)(C4)C2)C3)cc1	0%
Nc1ccc2c(c1)C(=NO)c1cc([N+](=O)[O-])ccc1-2	-6%
O=C(Nc1cccc(NC(=O)c2cncc(Br)c2)c1)c1cncc(Br)c1	-3%
O=C(Nc1ccc(Br)cc1Cl)N1CCOCC1	12%
CC1=C(C)CC(C(=O)N2CCN(C/C=C/c3ccccc3)CC2)C(C(=O)O)C1 (configuration not stated)	16%
O=C(C1CCCN(Cc2ccccc2Br)C1)N1CCCCC1 (configuration not stated)	7%
CC(=O)N1CCN(S(=O)(=O)c2cccc(C(=O)OCC(=O)Nc3c(Cl)cccc3C(F)(F)F)c2)CC1	-4%
CCOC(=O)C1CCCCN1Cc1ccc(OC)c(OC)c1 (configuration not stated)	16%

3 of the entries above in order of their number in VDR inhibitor, smallest number first:
compound	VDR inhibitor
CC(=O)N1CCN(S(=O)(=O)c2cccc(C(=O)OCC(=O)Nc3c(Cl)cccc3C(F)(F)F)c2)CC1	-4%
Cc1ccc(C23CC4CC(CC(C(N)=O)(C4)C2)C3)cc1	0%
CCOC(=O)C1CCCCN1Cc1ccc(OC)c(OC)c1 (configuration not stated)	16%

(continued)
compound	VDR inhibitor
CC1(C)Cc2c(sc(NC(=O)C(=O)NCCCN3CCOCC3)c2C(N)=O)CO1	-3%
CCn1cc(S(=O)(=O)c2cccc(C)c2)c(=O)c2cc(F)c(N3CCN(c4ccccc4)CC3)cc21	5%
Cc1ccc(OCCN2C(=O)C(=O)c3cc(C)ccc32)cc1	?
CCc1ccc(NSc2ccccc2[N+](=O)[O-])cc1	-7%
CCOC(=O)CCNC(=O)N1CCCC(N(C)CCc2ccc(OC)c(OC)c2)C1 (configuration not stated)	-23%
Cc1cccc(NC(=O)COC(=O)c2ccc([N+](=O)[O-])o2)c1C	-11%
COc1ccccc1NC(=S)NC(=O)C1CC1	-16%
O=C(c1ccoc1)N1CCC2(CC1)Oc1ccc(F)cc1C(=O)C21CC(c2ccccc2)=NO1 (configuration not stated)	-19%
O=C(O)CC(c1cccc2ccccc12)n1cccc1 (configuration not stated)	-10%
CCCN1Cc2cccc(C(=O)Nc3ccc(-c4nc5ccccc5[nH]4)cc3)c2C1=O	-13%
CCOc1ccc(-n2c(SCC(=O)N3CCc4ccccc43)nnc2-c2c[nH]c3ccccc23)cc1	1%
COc1ccccc1NC(=S)N1CCN(C/C=C/c2ccccc2)CC1	-7%
Cc1c(NC(=O)C(C)Oc2ccc(Br)cc2)c(=O)n(-c2ccccc2)n1C (configuration not stated)	-7%
CCc1ccc(NC(=O)CSCc2nc(N)nc(Nc3ccccc3CC)n2)cc1	-10%

A portion of the library. The share of hits here may be higher or lower than overall.
